# Bioassay records from PubChem BioAssay.
# UUG fidelity – modulators of yeast start codon fidelity, primary screen, whole organism, S. cerevisiae, single point, plate reader; S. cerevisiae UUG-firefly luciferase reporter, luminescence/redox ratio; activity score, % at 18.7 µM; 0.13% of 350,000 active; AID 602363, 2012;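 active = replicate mean at a twofold rise or more, about +100% in these data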;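 note: firefly luciferase made from a UUG start codon reports start codon fidelity; reporter light over untreated wells divided by growth signal over untreated wells; some hits fall short of that in this replicate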
# HIV Env fusion – inhibitors of HIV-1 Env-driven cell-cell fusion, primary screen, HeLa-JRFL effector, CEM21 target cells, luciferase | 1.1% of 360,000 active | inhibition, % at 12.3 µM;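 active = mean replicate inhibition score of at least 50 and every replicate individually at or above 50; inconclusive = only one of the two criteria met; inactive = mean below 50 and not all replicates reaching 50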;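 note: 0% = plate neutral controls and 100% = maraviroc near 300 nM; one replicate is shown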
# eIF4H inh – human eIF4H binding inhibitors, primary screen, translation initiation inhibitor project, biochemical, uHTS, fluorescence polarization | AID 2012, 2009 | inhibition, % at 35 µM | Eukaryotic translation initiation factor 4H (Homo sapiens), Q15056 | 0.94% of 290,000 active | eIF4H fluorescence polarization binding assay;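 active = 50% or more with normal probe brightness, or confirmed in later tests; inconclusive = above 50% with abnormal brightness, or retests that disagree; inactive = below 50% or failed in later tests; about a fifth of its hits are not listed in these tables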;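 note: calls also rest on retests at 20 µM and on dose response follow-up; 0% = protein and probe with vehicle and 100% = probe without protein; strong numbers were not always called active; many hits fall short of the cut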
# CSC inhib – cancer stem cell viability inhibitors, primary screen, luminescence; 1.1% of 300,000 active; cancer stem cell-like cells viability; inhibition, % at 7.5 µM; AID 2717, 2010;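 active = mean at 75% or more and at least half the replicates too; inconclusive = mean and replicates disagree; tested in HMLE shEcad cells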;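 note: 0% = median of negative and 100% = median of positive control wells; the first replicate is given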
# PABP polyA inh – PABP poly(A) RNA binding inhibitors, primary screen, biochemical, fluorescence polarization, uHTS; Polyadenylate-binding protein 1 (Homo sapiens), P11940; inhibition, % at 35 µM; 1% of 290,000 active; AID 2014, 2009;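 active = 50% or more with normal probe brightness, or confirmed in later tests; inconclusive = above 50% with abnormal brightness, or retests that disagree; inactive = below 50% or failed in later tests; about a fifth of its hits are not listed in these tables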;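 note: calls also rest on retests at 20 µM and on dose response follow-up; controls were probe without protein and protein plus probe with vehicle; some compounds called inactive have numbers as strong as hits; many hits fall short of the cut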
# Target sequence (P11940 whole entry, looked up): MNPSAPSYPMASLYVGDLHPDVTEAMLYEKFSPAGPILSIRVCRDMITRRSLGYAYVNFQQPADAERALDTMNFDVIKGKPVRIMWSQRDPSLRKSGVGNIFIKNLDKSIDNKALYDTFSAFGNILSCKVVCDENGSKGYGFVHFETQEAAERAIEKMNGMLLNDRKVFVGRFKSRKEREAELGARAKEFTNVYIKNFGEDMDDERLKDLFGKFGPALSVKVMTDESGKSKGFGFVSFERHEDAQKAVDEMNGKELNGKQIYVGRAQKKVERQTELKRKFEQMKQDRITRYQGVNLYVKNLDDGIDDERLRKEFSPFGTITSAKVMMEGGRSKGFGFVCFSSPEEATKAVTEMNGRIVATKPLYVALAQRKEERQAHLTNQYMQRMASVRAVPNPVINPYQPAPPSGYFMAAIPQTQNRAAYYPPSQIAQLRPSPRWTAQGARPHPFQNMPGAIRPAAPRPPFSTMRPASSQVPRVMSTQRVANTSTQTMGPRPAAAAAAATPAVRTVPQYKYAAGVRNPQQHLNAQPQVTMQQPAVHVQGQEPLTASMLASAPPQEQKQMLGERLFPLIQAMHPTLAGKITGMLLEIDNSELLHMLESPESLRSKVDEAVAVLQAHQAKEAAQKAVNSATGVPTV
# MT1-MMP act inh – blockers of MT1-MMP proenzyme processing, primary screen, HT1080 RFP-PRO-GFP cells, GFP/RFP fluorescence | GFP/RFP ratio fluorescence, overnight; percent of plate control window, DMSO zero | GFP/RFP ratio change, % at 20 µM | 0.061% of 360,000 active;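 active = GFP/RFP ratio change of at least 30% with cell ATP level not reduced by more than half and red fluorescence within 50% of control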; note: strong numbers were not always called active
#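 Assay system: HT1080 cells carrying an RFP-PRO-GFP reporter | Dosing: Single dose of 20 µM compound, 1% DMSO final | Incubation: Cells overnight before dosing, compound overnight, 37 °C, 5% CO2 | Evaluation: GFP/RFP fluorescence ratio | Control set: DMSO and RFP-L50D-GFP cell wells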
# Rce1 inhib – yeast Rce1p protease inhibitors, primary screen, biochemical, fluorescence, cell-free homogeneous | CAAX prenyl protease 2 (Saccharomyces cerevisiae (strain ATCC 204508 / S288c)), Q03530 | yeast membranes, quenched prenylated peptide cleavage fluorescence | calls only | 0.27% of 290,000 active | AID 2563, 2010;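 active = fall in fluorescence gain of 50% or more versus controls, with final raw signal at or below 3038400; inconclusive = same 50% fall but final raw signal above 3038400; inactive = fall in fluorescence gain under 50%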;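 note: plate controls were neutral control wells for no effect and wells lacking membranes for full effect; tested at 10 µM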
# MT1-MMP act inh RFP – recorded beside MT1-MMP act inh, whose call it bears; RFP signal change, %; measured here: RFP expression control read;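 0 = vehicle wells; hits needed this value within 50% of zero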
# Active calls of the source: *; i = inactive; ? = inconclusive; / = no result given.
SMILES,UUG fidelity,HIV Env fusion,eIF4H inh,CSC inhib,PABP polyA inh,MT1-MMP act inh,MT1-MMP act inh RFP,Rce1 inhib
COc1cc(Cl)c(C)cc1NC(C)C(=O)Nc1cc(C(F)(F)F)ccc1N1CCOCC1 (configuration not stated),/,37.2,3.4,42.0,0.2,-6.3,-1.7,i
CCC(=O)Nc1cc(=O)[nH]c2ncnn12,-17.3,-18.5,-4.8,-1.4,2.8,0.5,4.3,/
CC(C)(C)SCCNC(=O)c1ccc(CN2CCc3ccccc3C2)cc1,-19.9,-22.3,-11.0,1.5,-5.1,4.0,-3.0,i
COc1ccc(NC(=O)C2CCCN2S(=O)(=O)c2ccc3c(c2)C(C)(C)C(=O)N3C)cc1 (configuration not stated),-7.7,3.0,/,/,/,3.4,-2.1,/
CC[C@@]12C(=O)N(c3ccc(C)cc3)C(=O)N1[C@H](c1ccc(OC)cc1)[C@@H]1C(=O)N(C(C)(C)C)C(=O)[C@@H]12,-5.5,79.8*,1.2,-9.9,7.2,-0.4,2.7,i
O=C(CCCn1c(SCc2cc(=O)n3cc(Cl)ccc3n2)nc2ccccc2c1=O)NCC1CCCO1 (configuration not stated),-25.1,22.8,5.8,-2.8,6.6,1.6,1.0,i
O=C(O)c1cccc2c1Oc1ccccc1S2(=O)=O,-12.2,23.6,/,/,/,-0.4,4.1,/
O=c1[nH]cnc2c1sc1nc(C(F)F)cc(-c3ccccc3)c12,-25.5,/,/,-4.8,/,-1.8,-1.7,/
C=C(C)COc1ccc(-c2nc(N)nc(C)c2Oc2ccccc2OC)c(O)c1,-3.7,/,15.0,16.8,13.3,1.2,-4.2,i
CCOC(=O)c1ccc(CN2C(=O)c3ccccc3S2(=O)=O)cc1,65.0,-95.1,5.0,-17.0,4.6,1.5,-2.8,i
Cc1cccc(OC(C)C(=O)Nc2ccc(N3CCCCC3)cc2)c1 (configuration not stated),12.3,2.4,/,-3.9,/,5.8,3.1,i
O=C(CC1CCCCC1)N=C1SC2CS(=O)(=O)CC2N1c1ccccc1 (configuration not stated),-2.3,16.1,-3.9,-1.3,-1.6,3.2,6.7,i
COc1ccc(N(C(=O)c2cc3ccccc3oc2=O)C2C=CS(=O)(=O)C2)cc1 (configuration not stated),-16.7,-3.0,45.0,-17.4,-4.3,1.0,-1.4,i
N#Cc1ccc(NC(=O)COC(=O)CNC(=O)C2CCCCC2)cc1,10.3,/,3.4,-5.8,3.1,-1.2,3.4,i
CCN(C(=O)CSc1nnc(SC(C)C)s1)C1CCS(=O)(=O)C1 (configuration not stated),-2.3,-5.9,/,/,/,-1.2,0.0,/
CN(CC(=O)NCCN1CCN(c2ccccc2)CC1)S(=O)(=O)c1ccc2c(c1)CCC(=O)N2,-7.7,15.9,5.5,-3.0,15.4,-1.3,-2.0,i
COc1cc(C(=O)NCC(=O)NC(C)c2ccc(-n3ccnc3)cc2)cc(OC)c1OC (configuration not stated),/,-10.0,/,5.8,/,-0.9,0.3,i
O=C(NC1CCCc2ccccc21)C1CCCN(S(=O)(=O)c2cnc[nH]2)C1 (configuration not stated),-20.1,-34.2,-2.9,-6.3,2.6,-1.1,-0.1,i
CSc1ccc(/C=c2\s/c(=C\C(=O)C(C)(C)C)n(CC(=O)NCCC3=CCCCC3)c2=O)cc1,-19.0,9.3,?,11.9,-21.5,-24.7,-7.7,i
CCOC(=O)c1ccccc1NS(=O)(=O)c1ccc(OCC)cc1,-12.4,62.8*,-1.1,56.3,-4.1,-8.5,-19.2,i
O=C(c1ccc(C(F)(F)F)cc1)C1CCCN(C(=O)CCc2ccncc2)C1 (configuration not stated),-4.8,25.4,-1.3,10.7,4.8,-1.2,-17.2,i
C=CCn1c(O)c(N=NC(=O)c2ccccc2NS(=O)(=O)c2cccs2)c2ccccc21,-8.3,2.0,-1.1,13.5,13.2,8.5,4.4,i
O=C(CSc1nnc2c(Cl)cc(Cl)cn12)N1CCN(c2ccc(F)cc2)CC1,-12.5,/,1.0,-20.8,1.5,-2.8,3.0,i
Cc1c(-c2csc(N)n2)c2ccccc2n1C,-19.9,20.3,0.4,-15.1,4.9,2.7,4.6,i
O=C(Cn1nc(-c2ccc(Cl)cc2)ccc1=O)NCCN1CCOCC1,-18.1,-43.5,-2.6,-18.3,-1.7,2.0,4.5,i
CSc1ccc(C(C(C(=O)c2cccs2)N2CCOCC2)N2CCOCC2)cc1 (configuration not stated),5.2,/,-0.1,3.9,-8.3,-7.4,-1.2,i
CC(C)N(C)C(=O)C(=O)c1cccn1-c1cccc(Cl)c1C#N,/,6.5,2.5,-5.2,12.1,-1.7,2.7,i
O=C(NCc1ccco1)C1CC(=O)N(CCc2ccccc2)C1 (configuration not stated),-8.2,/,0.5,-18.1,10.4,9.2,8.0,i
CCOC(=O)c1cc(C(=O)c2cccs2)n2ccc(C(C)=O)cc12,/,/,-7.0,17.6,4.8,-12.2,-6.3,i
CCC(=NN=C(CC)c1ccccc1O)c1ccccc1O,-12.9,8.5,/,/,/,0.9,-1.0,/
CN(C)/C=C1/Nc2ccccc2C1=O,-9.7,-72.1,-3.3,-20.5,3.2,-0.3,9.8,i
S=c1[nH]cc(-c2ccccc2)[nH]1,/,-26.9,0.7,6.7,-0.8,-1.5,0.4,i
COc1ccc(OC)c(C2=NOC(C(=O)Nc3ccc4c(c3)OCCO4)C2)c1 (configuration not stated),0.8,-6.8,-7.8,-3.9,-6.6,1.8,2.7,i
O=c1cc(N2CCCCCC2)[nH]c(=O)n1-c1ccc(Cl)cc1,-17.0,-17.7,-3.5,4.6,0.1,-1.0,5.4,i
CS(=O)(=O)n1nc(-c2ccco2)nc1N,-10.0,-99.5,6.1,-7.6,-1.6,0.4,2.7,i
CCN(CC)CCNC(=O)C1(O)c2cc(Br)ccc2NC(=O)N1c1ccccc1 (configuration not stated),-11.1,-23.6,-2.9,3.4,-1.1,2.6,6.3,i
O=C(CN1C(=O)C(=O)N(Cc2ccco2)C1=O)c1c[nH]c2ccccc12,-15.8,4.8,9.3,-1.8,45.4,-5.3,-0.3,i
Cc1occc1-c1nnc(SCC(=O)Nc2ccccc2N2CCCCC2)n1C,-0.2,/,-13.1,3.5,-13.9,-2.2,-5.9,i
COc1ccccc1Nc1nc(Cl)nc(Nc2ccccc2OC)n1,/,24.6,-5.8,-14.7,-5.4,1.2,-2.3,i
COc1ccc(CNC(=O)CC2C[C@H](C(=O)N3CCCCC3)[C@@]3(C)c4[nH]c5ccccc5c4CCN3C2=O)cc1OC (some centres not stated),-8.6,-12.7,/,/,/,-1.6,-3.4,/

# The final 4 entries of the part before are carried over, then new ones follow.
SMILES,UUG fidelity,HIV Env fusion,eIF4H inh,CSC inhib,PABP polyA inh,MT1-MMP act inh,MT1-MMP act inh RFP,Rce1 inhib
O=C(CN1C(=O)C(=O)N(Cc2ccco2)C1=O)c1c[nH]c2ccccc12,-15.8,4.8,9.3,-1.8,45.4,-5.3,-0.3,i
Cc1occc1-c1nnc(SCC(=O)Nc2ccccc2N2CCCCC2)n1C,-0.2,/,-13.1,3.5,-13.9,-2.2,-5.9,i
COc1ccccc1Nc1nc(Cl)nc(Nc2ccccc2OC)n1,/,24.6,-5.8,-14.7,-5.4,1.2,-2.3,i
COc1ccc(CNC(=O)CC2C[C@H](C(=O)N3CCCCC3)[C@@]3(C)c4[nH]c5ccccc5c4CCN3C2=O)cc1OC (some centres not stated),-8.6,-12.7,/,/,/,-1.6,-3.4,/
CC(CNC(=O)CN1C(=O)COc2ccc(S(=O)(=O)N3CCCCC3)cc21)c1ccccc1 (configuration not stated),14.0,8.9,/,0.9,/,3.3,5.1,i
CCN1CCN(C(=O)c2ccc(Cl)c(S(=O)(=O)N3CCCCC3)c2)CC1,-5.4,7.5,1.3,-3.1,5.7,-0.3,-2.3,i
COc1ccccc1CNC(=O)CCCn1nc(C)c2c(C)n(-c3ccc(C)cc3)nc2c1=O,-9.5,37.9,0.6,-0.6,8.0,-0.4,-4.7,i
CCOC(=O)c1c(S(=O)(=O)NCC(=O)Nc2ccccc2)c(C)n(C)c1C,-25.1,10.9,/,-15.9,/,-1.5,-1.2,i
Cc1cccc(N=N/C(=C\O)C(=O)c2cccs2)c1,/,9.9,-1.3,91.6*,5.4,-2.7,-7.0,i
Cc1cc2ccccc2c(=O)n1CC(=O)NCC1COc2ccccc2O1 (configuration not stated),-7.3,/,-2.9,-8.5,-6.9,-5.5,0.1,/
COc1ccc(OC)c(NC(=O)COC(=O)/C=C/c2ccc(Cl)cc2)c1,-11.4,5.3,-4.3,-2.1,12.5,5.9,3.1,i
COc1ccccc1NS(=O)(=O)c1ccc(C(=O)NCCCN2CCCC2=O)cc1,-11.8,21.5,/,-5.7,/,-4.3,2.0,/
CN(C)CCCN(C(=O)COc1ccc(Cl)cc1)c1nc2cc3c(cc2s1)OCO3,-5.3,0.7,-3.8,-3.8,-6.5,-1.8,-1.6,i
COC(=O)C1CCCCN1C(=O)c1cc(COc2cccc3cccnc23)on1 (configuration not stated),-12.7,-24.0,-8.7,-3.3,-2.5,-3.1,-1.9,i
Cc1cc(C)c(S(=O)(=O)Nc2nnc(CC(C)C)s2)c(C)c1,3.2,-3.4,4.6,-4.6,8.8,2.0,1.1,i
CCOC(=O)N1CCN(S(=O)(=O)c2ccc(OC)cc2)CC1,-17.9,28.4,-1.7,2.5,11.6,0.9,-5.7,i
CN(C)/C=C/C(=O)c1ccc2noc(-c3cccc(F)c3)c2c1,-20.6,36.2,7.5,0.7,5.3,/,/,i
CCC(=O)c1ccc(OC(=O)c2cccs2)cc1,-12.9,27.8,/,-13.2,/,3.3,2.9,i
CCN(CC)CCOc1ccc2nc(N(C)C)sc2c1,-9.9,-33.8,-11.9,46.1,4.9,-2.9,9.2,i
CC(C)CN(C(=O)c1cc(Cl)nc2ccccc12)c1c(N)n(Cc2ccccc2)c(=O)[nH]c1=O,-9.9,-9.4,/,11.2,/,1.3,0.3,i
C=CCNC(=S)N/N=C(\C)c1cccc(OC)c1,-29.4,-194.8,-6.8,-5.3,-4.2,6.3,0.2,i
Clc1ccc(-c2nnc(Sc3nc4ccccc4o3)c3ccccc23)cc1,-1.6,/,4.2,67.2,-3.7,-1.9,0.4,i
CN(C)CCCNc1ncnc2oc(-c3ccccc3)c(-c3ccccc3)c12,-9.0,12.1,3.8,15.0,6.1,-11.2,-10.9,i
COc1ccc(CCC(=O)N2CCCC(Nc3ccc(OC)cc3)C2)cc1 (configuration not stated),-14.6,4.8,-14.5,6.7,-20.2,-4.0,-2.2,i
COc1ccc(C(=O)Nc2ccccc2C(=O)N2CCOCC2)cc1OC,-13.3,2.5,14.5,-9.8,5.4,-0.5,0.6,i
CCCc1cc(CN(C)C(=O)c2ccc(OC3CCN(C(C)=O)CC3)c(OC)c2)[nH]n1,-9.3,35.9,/,/,/,-1.0,-1.2,/
Cn1c(CC(=O)Nc2ccccc2)n[nH]c1=S,-3.0,19.9,-9.5,-6.7,-7.7,0.4,2.6,i
O=C1CN(C(=O)C2CCCC2)CCN1,/,-1.4,-10.4,-6.5,14.6,3.7,10.2,i

# Some of the compounds tested. The share of hits here may be higher or lower than overall.
